Compound activity from PubChem BioAssay.
PKD1 kinase inh: inhibitors of human PKD1 kinase. Q15139. PKD1 kinase fluorescence polarization assay. inhibition, %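 (about 10 µM by stock and volumes)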. 200,000 compounds, 0.056% hits. AID 797;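 active = inhibition of 50% or more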;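 also: controls were vehicle for no effect and a reference inhibitor for full effect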
Target sequence (Q15139 whole entry, looked up): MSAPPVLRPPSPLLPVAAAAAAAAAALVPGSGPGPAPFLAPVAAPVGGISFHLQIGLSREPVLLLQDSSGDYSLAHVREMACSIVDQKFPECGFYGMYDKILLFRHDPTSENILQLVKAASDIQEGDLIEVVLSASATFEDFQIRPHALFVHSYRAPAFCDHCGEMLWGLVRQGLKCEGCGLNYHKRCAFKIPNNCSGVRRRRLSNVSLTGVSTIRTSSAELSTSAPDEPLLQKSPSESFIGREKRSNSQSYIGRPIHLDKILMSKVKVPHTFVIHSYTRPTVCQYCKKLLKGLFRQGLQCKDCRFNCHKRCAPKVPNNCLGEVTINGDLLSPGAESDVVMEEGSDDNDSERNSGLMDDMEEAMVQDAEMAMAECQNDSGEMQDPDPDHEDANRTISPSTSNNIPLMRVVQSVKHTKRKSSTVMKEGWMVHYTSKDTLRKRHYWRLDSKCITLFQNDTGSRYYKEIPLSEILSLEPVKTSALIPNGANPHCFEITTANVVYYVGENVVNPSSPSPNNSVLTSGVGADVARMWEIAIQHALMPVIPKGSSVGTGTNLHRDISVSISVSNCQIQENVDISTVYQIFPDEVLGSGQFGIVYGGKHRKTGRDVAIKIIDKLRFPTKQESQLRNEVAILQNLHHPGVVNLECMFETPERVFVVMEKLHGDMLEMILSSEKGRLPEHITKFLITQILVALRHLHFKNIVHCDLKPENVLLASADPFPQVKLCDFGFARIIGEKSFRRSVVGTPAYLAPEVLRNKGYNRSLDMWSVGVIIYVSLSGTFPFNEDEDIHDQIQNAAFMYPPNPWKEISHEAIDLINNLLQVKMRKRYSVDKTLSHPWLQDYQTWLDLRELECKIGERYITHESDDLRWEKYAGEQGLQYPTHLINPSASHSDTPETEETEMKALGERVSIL
HSV augment: HSV replication enhancement. HSV replication augmentation in cells, fold increase. maximum fold increase. 220,000 compounds, 0.005% hits;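 active = peak rise of 1.5-fold or more in the series; tested in PC3 cells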;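 also: first round at 10 µM; read as green reporter fluorescence; hits show the peak of a series up to 25 µM; 1 = signal of infected wells without compound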
RGS16-Gao: RGS16-Galphao interaction regulator (human); O15492+P09471; bead-based flow cytometry RGS16-Galphao binding, fluorescence; actives lie on both sides; 220,000 compounds, 0.38% hits; AID 1441; binding response (% of control), % at 10 µM;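 active = below 25% or above 175%, edge rows of some plates excepted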;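 also: Galphao activated by GDP with aluminum fluoride before binding; 100% = wells without compound and 0% = beads without RGS; some results beyond the cut were filed as inactive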
GALR2 ag: agonists of human galanin receptor 2 (GALR2). O43603. GALR2-expressing cells, agonist activation read-out. activation, %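 (tested at 5 µM)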. 140,000 compounds, 0.48% hits. AID 803;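 active = above mean plus 3 SD of all compounds, about 5% in these data, not always enough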;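 also: 0% = vehicle buffer wells and 100% = reference agonist at full effect; tested in CHO reporter cells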
INS promoter inh: TRM-6 insulin promoter activity inhibition | TRM-6 cells (human fetal islet line), insulin promoter-eGFP reporter, imaging; reporter expression induced with tamoxifen | inhibition, % at 2 µM | 130,000 compounds, 0.9% hits | AID 1273;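 active = inhibition above the mean plus 3 SD, with well images judged a real hit on visual review, cut at about 60% in these data, passing the limit was not always enough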
INS promoter inh cell count: recorded beside INS promoter inh, whose call it bears; normalized cell count, %; measured here: cell count, toxicity; reference of the scale not given here;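 cells exposed to compound for 48 h; stained nuclei by imaging scaled within each plate; lower means fewer cells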
HSV augment primary fold: further read-out of HSV augment, marked with its call; fold increase; compound at 10 µM; measured here: primary screen fold increase 10 uM; tested in PC3 cells;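 GFP signal in the first replicate; 1 = infected wells without compound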
An asterisk follows results filed as active.

CCOC(=O)C1=C(C)NC(SC)=NC1c1ccccc1 (stereo not given) was read as PKD1 kinase inh 0.1, HSV augment inactive, RGS16-Gao 106.6, GALR2 ag -1.6, INS promoter inh 9.5, INS promoter inh cell count 137.8 and HSV augment primary fold 0.87.
`COc1ccc(-c2nnc(SCc3cc(C)cc(C)c3)o2)cc1` gave PKD1 kinase inh 2.0, RGS16-Gao 102.1 and GALR2 ag 0.4.
Screening O=C(O)c1cccc(Nc2nc(C(F)(F)F)nc3ccccc23)c1 returned PKD1 kinase inh 0.2, HSV augment inactive, RGS16-Gao 95.7, INS promoter inh 0.0, INS promoter inh cell count 132.3 and HSV augment primary fold 0.9.
`COc1ccc(S(=O)(=O)NNC(=O)C2Cc3c(ccc4ccccc34)O2)cc1` (stereo not given) gave PKD1 kinase inh -0.8, HSV augment inactive, RGS16-Gao 101.1, GALR2 ag -1.1, INS promoter inh 0.0, INS promoter inh cell count 103.8 and HSV augment primary fold 0.95.
Screening C=C(C)Cn1c(=O)c(NC(=O)c2ccccc2)c2n(c1=S)CCC2 returned PKD1 kinase inh 1.4, HSV augment inactive, RGS16-Gao 91.7, GALR2 ag -0.5, INS promoter inh -3.6, INS promoter inh cell count 121.2 and HSV augment primary fold 0.98.
Cc1cc(OCC(=O)Nc2ccc(CN3CCCCC3)cc2)ccc1Cl was read as PKD1 kinase inh -3.2, HSV augment inactive, RGS16-Gao 97.4, INS promoter inh 0.0, INS promoter inh cell count 93.7 and HSV augment primary fold 1.02.
COc1ccccc1/C=C/C(=O)NCC(=O)N/N=C(\CCC(=O)O)c1ccccc1 was read as PKD1 kinase inh -3.9, HSV augment inactive, RGS16-Gao 111.1, INS promoter inh -9.1, INS promoter inh cell count 121.2 and HSV augment primary fold 0.95.
`CC1CCN(C(=O)c2ccc(NS(=O)(=O)c3cccc4cccnc34)cc2)CC1` gave HSV augment inactive, RGS16-Gao 97.0 and HSV augment primary fold 0.93.
Screening CCOc1ccccc1OCCCNCc1ccco1 returned PKD1 kinase inh 9.7, RGS16-Gao 94.9, GALR2 ag -1.6, INS promoter inh 0.0 and INS promoter inh cell count 101.3.
`COc1ccc(N2C(=O)CCC(C(=O)N(C)CCc3ccccn3)C2c2ccc(OC)c(OC)c2)cc1` (stereo not given) gave PKD1 kinase inh 0.8, HSV augment inactive, RGS16-Gao 99.8, INS promoter inh 6.7, INS promoter inh cell count 82.6 and HSV augment primary fold 0.88.
`O=C(c1ccc(C(F)(F)F)cc1)N1CCCCC1` gave PKD1 kinase inh -3.4, HSV augment inactive, RGS16-Gao 100.9, GALR2 ag -1.4, INS promoter inh -23.1, INS promoter inh cell count 84.4 and HSV augment primary fold 1.02.
CCCCn1c(SCc2nc(N)nc(N3CCCCC3)n2)nc2c1c(=O)n(C)c(=O)n2C was read as PKD1 kinase inh -5.3, HSV augment inactive, RGS16-Gao 44.8, GALR2 ag 1.2, INS promoter inh 31.0, INS promoter inh cell count 143.5 and HSV augment primary fold 0.98.
For Cc1nc2ccc(Cl)cc2nc(C)/c1=N\O the results were PKD1 kinase inh 7.3, HSV augment inactive, RGS16-Gao 108.7, GALR2 ag -0.3 and HSV augment primary fold 1.
`CC(=O)CCC(=O)c1ccc2ccccc2c1` gave PKD1 kinase inh -11.7, HSV augment inactive, RGS16-Gao 67.0, GALR2 ag -2.2, INS promoter inh -7.4, INS promoter inh cell count 121.4 and HSV augment primary fold 0.91.
Screening CCOC(=O)c1c(C)[nH]c(O)c1C=Nc1ccc(Cl)cc1 returned PKD1 kinase inh 11.4, HSV augment inactive, RGS16-Gao 95.8, GALR2 ag -1.0, INS promoter inh 12.5, INS promoter inh cell count 95.3 and HSV augment primary fold 0.99.
C=CCN=C(C)C1=C(O)CCC1=O was read as PKD1 kinase inh 3.2, HSV augment inactive, RGS16-Gao 62.6, GALR2 ag 1.2, INS promoter inh 20.0, INS promoter inh cell count 86.4 and HSV augment primary fold 0.92.
O=C(c1ccc(Cl)s1)N1CCN(c2ncccn2)CC1 was read as HSV augment inactive, RGS16-Gao 99.4 and HSV augment primary fold 0.85.
For O=C(Nc1sc2c(c1C(=O)c1ccc(Cl)cc1)CCCC2)c1cccnc1 the results were PKD1 kinase inh 5.1, HSV augment inactive, RGS16-Gao 101.8, GALR2 ag 0.0, INS promoter inh -9.4, INS promoter inh cell count 69.2 and HSV augment primary fold 0.87.
For CCOP(=O)(c1ccccc1)c1nc(-c2ccccc2C)oc1NCc1ccccc1 (stereo not given) the results were HSV augment inactive, RGS16-Gao 101.0 and HSV augment primary fold 0.94.
`O=C(O)c1sccc1SCc1ccc(Cl)cc1Cl` gave PKD1 kinase inh 0.9, RGS16-Gao 85.1, GALR2 ag -3.4, INS promoter inh 12.5 and INS promoter inh cell count 161.1.
COc1ccc(NC(=O)C2CCCN2C(=O)NCc2ccccc2)cc1OC (stereo not given) was read as PKD1 kinase inh -10.9, HSV augment inactive, RGS16-Gao 100.4, GALR2 ag -3.2, INS promoter inh -17.2, INS promoter inh cell count 49.8 and HSV augment primary fold 0.87.
Screening CC1CCCCN1C(=O)Cn1cc(C=O)c2ccccc21 (stereo not given) returned PKD1 kinase inh 3.0, HSV augment inactive, RGS16-Gao 46.1, GALR2 ag -0.1, INS promoter inh 13.3, INS promoter inh cell count 111.6 and HSV augment primary fold 0.97.
Screening Cc1ccc(OC(=O)C(F)(F)F)c2c1NCCC2 returned PKD1 kinase inh 12.1, HSV augment inactive, RGS16-Gao 105.5, GALR2 ag 0.5, INS promoter inh 63.6, INS promoter inh cell count 113.3 and HSV augment primary fold 0.94.
`COCc1cc(=O)n2c(-c3ccc(C)cc3)n[nH]c2n1` gave HSV augment inactive, RGS16-Gao 100.8 and HSV augment primary fold 1.08.
Screening CCn1c(N2CCC(Cc3ccccc3)CC2)nc2c1c(=O)[nH]c(=O)n2C returned PKD1 kinase inh 1.9, RGS16-Gao 100.2 and GALR2 ag -1.0.
Cc1ccc2c(c1)nnn2C1CCN(S(=O)(=O)c2ccc(C(=O)N(C)C)cc2)CC1 was read as PKD1 kinase inh 1.0, HSV augment inactive, RGS16-Gao 103.3, GALR2 ag -0.8, INS promoter inh 58.3, INS promoter inh cell count 123.6 and HSV augment primary fold 0.96.
For Cc1ccc(CNC(=O)[C@@H]2CCC(=O)N2Cc2ccco2)cc1 the results were PKD1 kinase inh -1.4, HSV augment inactive, RGS16-Gao 96.2, GALR2 ag -3.0, INS promoter inh 25.8, INS promoter inh cell count 79.3 and HSV augment primary fold 1.02.
`COc1cc(C(=O)NCCOc2ccccc2)c(Br)c(OC)c1OC` gave PKD1 kinase inh -1.2, HSV augment inactive, RGS16-Gao 95.0, GALR2 ag -1.6, INS promoter inh 60.9, INS promoter inh cell count 81.4 and HSV augment primary fold 1.
Screening CC(C)(C)NC(=O)CN(Cc1cccs1)C(=O)CNS(=O)(=O)c1ccc(F)cc1 returned PKD1 kinase inh 4.7, HSV augment inactive, RGS16-Gao 102.6, INS promoter inh -40.0, INS promoter inh cell count 66.0 and HSV augment primary fold 0.74.
CCOC(=O)CSc1nc2cc(C(F)(F)F)cnc2n1C was read as HSV augment inactive, RGS16-Gao 104.0 and HSV augment primary fold 0.97.
CN(Cc1cc(-c2ccccc2)on1)C(=O)c1cc(COc2c(F)cccc2F)on1 was read as PKD1 kinase inh 3.7, HSV augment inactive, RGS16-Gao 102.0 and HSV augment primary fold 0.97.
COc1ccc(-c2nc(-c3ccccn3)nc(N3CCN(C)CC3)c2C#N)cc1 was read as PKD1 kinase inh 1.6, HSV augment inactive, RGS16-Gao 102.4 and HSV augment primary fold 0.97.
Cc1n[nH]c(C)c1CCc1nc2c3ccccc3nc(SCC(=O)Nc3ccccc3F)n2n1 was read as PKD1 kinase inh -1.4, HSV augment inactive, RGS16-Gao 103.2, GALR2 ag 6.9 and HSV augment primary fold 1.04.
For CC(C)(C)c1nc2ccc([N+](=O)[O-])cc2[nH]1 the results were PKD1 kinase inh -1.0, HSV augment inactive, RGS16-Gao 108.0, INS promoter inh 61.9, INS promoter inh cell count 219.2 and HSV augment primary fold 0.95.
`O=C(Nc1ccc(N2CCN(C(=O)C3CC3)CC2)cc1)c1cccs1` gave PKD1 kinase inh -9.8, HSV augment inactive, RGS16-Gao 105.3 and HSV augment primary fold 0.89.
For CCn1c2ccccc2c2nnc(SCC(=O)c3c(N)n(C)c(=O)n(C)c3=O)nc21 the results were PKD1 kinase inh -2.2, HSV augment inactive, RGS16-Gao 104.4 and HSV augment primary fold 0.89.
Screening CCOc1ccc(Cl)cc1S(=O)(=O)n1cnc2ccccc21 returned PKD1 kinase inh -3.0, HSV augment inactive, RGS16-Gao 94.3, GALR2 ag 2.1, INS promoter inh -136.4, INS promoter inh cell count 54.0 and HSV augment primary fold 1.03.
`CC(=O)Nc1ccc(S(=O)(=O)CCC(=O)O)cc1` gave PKD1 kinase inh -0.7, HSV augment inactive, RGS16-Gao 106.8, GALR2 ag -1.4, INS promoter inh -37.9, INS promoter inh cell count 72.3 and HSV augment primary fold 0.69.
For CCOc1ccccc1NC(=O)c1ccccc1NS(C)(=O)=O the results were PKD1 kinase inh -7.2, HSV augment inactive, RGS16-Gao 78.2, GALR2 ag -2.4, INS promoter inh 50.0, INS promoter inh cell count 142.1 and HSV augment primary fold 0.86.
Screening Cc1ccccc1C1c2[nH]c3ccccc3c2CCN1Cc1cccn1-c1ncccn1 (stereo not given) returned HSV augment inactive, RGS16-Gao 96.5 and HSV augment primary fold 1.12.
For CCOc1ncccc1C(=O)OCC(=O)c1ccccc1Br the results were PKD1 kinase inh -5.9, HSV augment inactive, RGS16-Gao 108.0, INS promoter inh -33.3, INS promoter inh cell count 110.9 and HSV augment primary fold 0.88.
`COC(=O)[C@@H](NC(=O)N1CCN(c2cccc(C(F)(F)F)c2)CC1)C(C)C` gave PKD1 kinase inh -2.5, HSV augment inactive, RGS16-Gao 102.3, GALR2 ag -1.6 and HSV augment primary fold 0.92.
CCN(C(=O)COC(=O)c1cccnc1SC)C1CCS(=O)(=O)C1 (stereo not given) was read as PKD1 kinase inh -8.1, HSV augment inactive, RGS16-Gao 100.2, GALR2 ag -0.3 and HSV augment primary fold 0.94.
`Cc1ccc(C)c(NC(=O)CSc2nc3nc(-c4cccs4)cc(C(F)(F)F)c3c(=O)[nH]2)c1` gave HSV augment inactive, RGS16-Gao 112.2 and HSV augment primary fold 1.11.
Screening O=C(NC(=S)Nc1nc(-c2ccccc2)cs1)c1ccco1 returned PKD1 kinase inh 0.5, HSV augment inactive, RGS16-Gao 96.0 and HSV augment primary fold 0.95.
`COC(=O)c1ccccc1-c1ccc(C=O)o1` gave PKD1 kinase inh -0.5, HSV augment inactive, RGS16-Gao 101.0, INS promoter inh 27.8, INS promoter inh cell count 49.5 and HSV augment primary fold 0.99.
For Cc1cc(C)n(-c2cc(N3CCOCC3)ncn2)n1 the results were PKD1 kinase inh -3.7, HSV augment inactive, RGS16-Gao 129.1, GALR2 ag -0.6 and HSV augment primary fold 1.
Screening CC1(C)CC(=O)C(Sc2nnc(-c3ccc(O)cc3)n2CC2CCCO2)C(=O)C1 (stereo not given) returned PKD1 kinase inh -8.8, HSV augment inactive, RGS16-Gao 58.1, GALR2 ag -1.2, INS promoter inh -53.1, INS promoter inh cell count 93.2 and HSV augment primary fold 0.95.
CCOc1ccccc1N1C(=O)CC(Sc2n[nH]c(-c3ccccc3)n2)C1=O (stereo not given) was read as PKD1 kinase inh -1.6, HSV augment inactive, RGS16-Gao 102.4 and HSV augment primary fold 1.1.
For COc1ccc(-c2cnnc(N/N=C/c3ccc(-c4ccc([N+](=O)[O-])cc4)o3)n2)cc1 the results were PKD1 kinase inh -1.5, HSV augment inactive, RGS16-Gao 94.8, INS promoter inh -175.0, INS promoter inh cell count 14.9 and HSV augment primary fold 0.71.
`O=C1NCCCN1Cc1ccc(F)cc1Cl` gave PKD1 kinase inh -4.6, HSV augment inactive, RGS16-Gao 108.2, GALR2 ag -2.6 and HSV augment primary fold 0.73.
Screening CC(=O)Nc1ccc(NC(=O)C(=O)c2cn(CC(=O)N3CCCCC3)c3ccccc23)cc1 returned PKD1 kinase inh -6.5, RGS16-Gao 92.4, INS promoter inh 0.0 and INS promoter inh cell count 98.3.

Arranged by number of heavy atoms (lowest first): part of the list above.
`COC(=O)[C@@H](NC(=O)N1CCN(c2cccc(C(F)(F)F)c2)CC1)C(C)C` gave PKD1 kinase inh -2.5, HSV augment inactive, RGS16-Gao 102.3, GALR2 ag -1.6 and HSV augment primary fold 0.92.
For COc1ccc(-c2cnnc(N/N=C/c3ccc(-c4ccc([N+](=O)[O-])cc4)o3)n2)cc1 the results were PKD1 kinase inh -1.5, HSV augment inactive, RGS16-Gao 94.8, INS promoter inh -175.0, INS promoter inh cell count 14.9 and HSV augment primary fold 0.71.
`Cc1ccc(C)c(NC(=O)CSc2nc3nc(-c4cccs4)cc(C(F)(F)F)c3c(=O)[nH]2)c1` gave HSV augment inactive, RGS16-Gao 112.2 and HSV augment primary fold 1.11.
